# Screening data: PubChem, several laboratories
# Beta cell apopt: inhibitors of cytokine-induced beta cell apoptosis, primary screen, luminescence | 300,000 compounds, 0.8% hits | INS-1E cytokine-induced death, ATP luminescence, 48 h; percent of positive-control rescue, neutral wells zero | protection from apoptosis, % (concentration not given with the values);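 active = all replicates at 75% or more, or half of them and the mean; inconclusive = half reach 75% but not the mean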;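 also: 0% = cytokine-treated negative control wells and 100% = positive control rescue; higher means more ATP so stronger rescue from cytokine killing; wells of about 40 µL received 100 nL stock; the first replicate is given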
# Vif TR-FRET: inhibitors of Vif binding to APOBEC3G peptide, primary screen, biochemical, TR-FRET, GST-Vif 1-94, biotin-A3G peptide, dose response retest (AID 1117319); Virion infectivity factor (Human immunodeficiency virus type 1 group M subtype B (isolate …; TR-FRET GST-Vif / biotin-A3G peptide binding; higher % means a stronger effect; test concentration not given here; strong numbers were not always called active; one-dose inhibition, %; IC50 in µM for titrated hits; 260,000 compounds, 0.57% hits;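 active = above the screen mean plus three standard deviations and confirmed in dose response; inconclusive = results disagree or hit not tested in dose response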;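 also: Vif residues 1-94 fused to GST binding biotinylated APOBEC3G peptide 110-148; 0% = full assay without inhibitor and 100% = GST in place of GST-Vif; retest series ran down from 100 µM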
# Bfl-1 A1 inh: caspase 3/7 activation in MEF A1-2A-BIM cells, primary screen, A1 inhibitor project, cell-based, luminescence, HTS. Caspase-Glo 3/7 luminescence, 3 h; percent of clofoctol response, vehicle zero. caspase activation, % (no concentration beside the values). 330,000 compounds, 0.066% hits. AID 2462, 2010;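 active = over half of replicate activation scores above 10%, or exactly half above 10 with the replicate mean above 10; inconclusive = replicate mean below 10 yet half the replicates above 10; inactive = over half of replicates below 10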;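 also: wells of about 30 µL received 50 nL stock; many hits fall short of the cut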
# LANA-H2A inh: blockers of LANA interaction with H2A/H2B – biochemical, FP readout, HTS, primary screen. cell-free LANA-H2A/H2B peptide, fluorescence polarization. inhibition, % (test concentration not listed). AID 2629, 2010. 320,000 compounds, 0.6% hits. Protein LANA1 (Human herpesvirus 8 type P (isolate GK18)), Q9QR71; in the data active = inhibition mostly above about 10%, no sharp cut-off; inactive = mostly below about 6.7%;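 also: stock transfer was 7.5 nL into about 10 µL; 0% = median of vehicle wells and 100% = median of positive control wells; one replicate is shown; the record names a cut of 25% in any replicate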
# T cruzi repl: inhibitors of intracellular T. cruzi growth, primary screen, luminescence, NIH3T3 host cells | T. cruzi beta-gal in NIH3T3, 90 h | inhibition, % (test concentration not listed) | AID 1885, 2009 | 300,000 compounds, 1.4% hits;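 active = mean inhibition across valid replicates above about 55%, limit read from the data; inconclusive = mean below that limit but half or more replicates reach it; inactive = mean below it, under half of replicates reach it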;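 also: signal also drops with host cell toxicity which is not excluded here; 0% = plate median of DMSO wells and 100% = zero luminescence signal; higher percent means less beta-gal luminescence so fewer parasites; stock transfer was 50 nL into about 50 µL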
# MLL AF4-AF9 inh: inhibitors of AF4 peptide binding to AF9, primary screen, biochemical, AlphaScreen, biotin-AF4 peptide, FLAG-AF9, single point. inhibition, % at 10 µM. 350,000 compounds, 0.47% hits. Protein AF-9 (Homo sapiens), P42568. AID 651704, 2012;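 active = every replicate reaching a set inhibition limit, whatever the replicate mean, cut at about 25% in these data; inconclusive = mean inhibition reaches that limit but some replicates miss it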;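 also: 0% = plate neutral control median and 100% = total signal loss; the record names both 10 and 1 µM as test concentration; the first replicate is given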
# Target sequence (P42568 whole entry, looked up): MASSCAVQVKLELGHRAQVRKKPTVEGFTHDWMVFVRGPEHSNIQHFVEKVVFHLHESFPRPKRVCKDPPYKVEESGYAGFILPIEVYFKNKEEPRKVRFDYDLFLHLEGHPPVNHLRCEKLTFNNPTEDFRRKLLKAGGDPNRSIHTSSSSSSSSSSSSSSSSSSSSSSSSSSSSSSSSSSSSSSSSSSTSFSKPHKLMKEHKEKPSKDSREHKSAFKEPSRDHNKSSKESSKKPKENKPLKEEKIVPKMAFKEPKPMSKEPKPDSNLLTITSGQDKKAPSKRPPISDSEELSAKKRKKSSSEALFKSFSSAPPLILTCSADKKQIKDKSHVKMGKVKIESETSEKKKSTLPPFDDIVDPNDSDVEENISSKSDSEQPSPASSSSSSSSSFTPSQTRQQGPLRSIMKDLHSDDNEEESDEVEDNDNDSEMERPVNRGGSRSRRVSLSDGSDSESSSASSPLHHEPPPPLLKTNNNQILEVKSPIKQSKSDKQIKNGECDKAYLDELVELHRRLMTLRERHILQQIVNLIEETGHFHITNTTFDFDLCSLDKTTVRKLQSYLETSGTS
# Calb FLC: C. albicans growth inhibition with fluconazole, primary screen, CaCi-2 strain, Alamar Blue fluorescence; C. albicans CaCi-2 (fluconazole-resistant clinical isolate) + fluconazole, 48 h; 300,000 compounds, 0.57% hits; growth inhibition, % (test concentration not listed); AID 1979, 2009;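 active = most replicates above 75%; inconclusive = exactly half above 75%; inactive = most below 75%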;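 also: all wells also contain fluconazole at 8 µg/ml as a sub-toxic cotreatment; 0% = median of DMSO wells and 100% = median of geldanamycin control wells; wells of about 8 µL received 7.5 nL stock; the first replicate is given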
# RanGTP-Imp inh: inhibitors of RanGTP-importin-beta interaction, primary screen, biochemical, FRET, CFP-Ran, YFP-importin-beta, homogeneous | inhibition, % (concentration not given with the values) | 300,000 compounds, 1.1% hits | cell-free CFP-Ran/YFP-importin-beta FRET ratio;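 active = most replicates above 15%; inconclusive = exactly half above 15%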;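 also: 0% = DMSO wells and 100% = Ran loaded with GDP instead of GTP; wells of about 40 µL received 100 nL stock; the first replicate is given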
# Starred values were filed as active, the others as inactive; ? = inconclusive; nt = not tested or not shown.
SMILES,Beta cell apopt,Vif TR-FRET,Bfl-1 A1 inh,LANA-H2A inh,T cruzi repl,MLL AF4-AF9 inh,Calb FLC,RanGTP-Imp inh
COc1cccc(CNC(=O)CN(C)S(=O)(=O)c2ccc3c(c2)n(C)c(=O)c(=O)n3C)c1,-2.8,4.2%,0.6,-0.1,0.1,-2.3,-4.3,-2.2
Cc1ccc(NC(=O)CCNS(=O)(=O)c2ccc3[nH]c(=O)oc3c2)c(C)c1,-4.4,2.1%,-0.2,-13.6,-3.8,1.3,11.4,?
COc1cc(C(=O)N2CCN(C(=O)Cc3ccccc3)CC2)cc(OC)c1OC,-1.1,0.2%,0.8,1.5,-5.9,nt,-13.6,1.4
CC(=O)N1CCN(C(=O)C2(NC(=O)Nc3ccccc3Cl)CCCCC2)CC1,-1.2,nt,-0.4,1.2,-16.8,2.4,-0.7,-1.9
O=C(Nc1ccc(Br)cn1)c1ccc([N+](=O)[O-])o1,-18.6,-2.7%,-1.8,-8.4,13.7,-1.6,18.1,-0.7
CCCNc1nc(-c2ccccc2)c(C(=O)OCC)cc1C#N,5.0,23.5%,-0.5,1.2,-4.2,nt,2.0,1.5
Cc1cccc(NC(=S)N2CCN(c3cc(C)ccc3C)CC2)c1,-6.5,nt,0.0,2.5,-20.1,nt,?,-4.5
Cc1ccc(N=Cc2ccc(N(C)C)cc2)cc1,-1.4,?,1.3,0.6,-2.7,nt,-21.2,?
Cc1cc2c(NC(=O)CCCC(=O)O)cccc2nn1,-2.9,-2.2%,2.9,6.6,-9.8,4.9,1.8,-0.1
N=c1c2c(n(Cc3ccc(Cl)c(Cl)c3)c3c1CCC3)CCCC2,102.5*,11.6%,0.2,1.2,69.5*,nt,-0.1,5.8
COc1cc(/C=C/C(=O)NC(C)(C)C)ccc1OCc1ccccc1,nt,-0.3%,0.0,-1.9,-13.2,nt,-7.3,2.8
CCC(=O)Nc1cccc(NC(=O)CSc2nnc(-c3ccc(NS(C)(=O)=O)cc3)n2CC)c1,0.6,-6.3%,-0.6,9.0,-9.4,nt,-3.8,-1.4
CCOc1ccccc1C1c2[nH]c3ccccc3c2C[C@H]2C(=O)N(C3CC3)CC(=O)N12 (stereo not given in full),0.0,nt,0.2,1.1,4.9,-0.9,0.2,0.7
Fc1cccc(CSc2ccc3nnc(-c4ccccn4)n3n2)c1,-7.1,-3.0%,0.2,1.6,15.6,-1.0,?,?
COc1cc(OC)cc(C(=O)NCCc2cnc[nH]2)c1,-6.9,2.8%,-1.3,-0.2,10.6,3.0,5.1,1.7
N#Cc1ccc(N2CCCNCC2)nc1,-7.1,-3.0%,1.4,2.7,-3.2,0.4,-1.3,-2.2
Cc1cc(C)n2c(SCCC(C)C)nnc2n1,1.2,10.9%,0.7,-2.5,6.7,nt,-2.0,-0.1
Cc1onc(-c2c(Cl)cccc2Cl)c1C(=O)Nc1nc(C(C)(C)C)cs1,nt,?,1.0,0.7,-14.1,5.6,-3.2,-3.3
CSc1nc2ccc(S(=O)(=O)Nc3c(C)n(C)n(-c4ccccc4)c3=O)cc2s1,0.9,2.8%,0.2,-3.2,8.5,nt,12.8,0.8
Cc1ccn2c(c1)nc(=O)c1cc(S(=O)(=O)N3CCOCC3)ccc12,nt,nt,0.3,0.4,-7.5,0.6,-5.2,6.3

# Among those listed so far, these have a tert-butyl group.
SMILES,Beta cell apopt,Vif TR-FRET,Bfl-1 A1 inh,LANA-H2A inh,T cruzi repl,MLL AF4-AF9 inh,Calb FLC,RanGTP-Imp inh
COc1cc(/C=C/C(=O)NC(C)(C)C)ccc1OCc1ccccc1,nt,-0.3%,0.0,-1.9,-13.2,nt,-7.3,2.8
Cc1onc(-c2c(Cl)cccc2Cl)c1C(=O)Nc1nc(C(C)(C)C)cs1,nt,?,1.0,0.7,-14.1,5.6,-3.2,-3.3

# New compounds follow.
SMILES,Beta cell apopt,Vif TR-FRET,Bfl-1 A1 inh,LANA-H2A inh,T cruzi repl,MLL AF4-AF9 inh,Calb FLC,RanGTP-Imp inh
CCOC(=O)C1=C(C)N(c2ccc(C)cc2)C(=O)/C1=C\c1ccc(O)c(OC)c1,-9.6,?,-0.8,2.9,-9.2,11.3,-0.5,7.1
COc1ccc(OC)c(NC(=O)CCNS(=O)(=O)c2ccc3c(c2)oc(=O)n3C)c1,-8.1,6.0%,0.9,4.7,-7.5,-9.3,-4.9,0.6
O=C(COc1ccccc1)N=C1SC2CS(=O)(=O)CC2N1c1ccc(F)cc1F (stereo not given),5.2,nt,0.2,-2.9,-20.0,-2.8,9.7,-1.6
Cc1cc(C)c(-c2cc(NC(=O)COC(=O)c3ccc(NC(=O)CC#N)cc3)n(-c3ccccc3)n2)cc1C,-2.1,-0.9%,-0.1,-0.8,-9.2,-16.5,2.7,nt
CCCCC(CC)CNC(=O)c1[nH]c(C)c(C(C)=O)c1C (stereo not given),3.8,4.6%,-0.8,-0.2,1.7,1.4,7.6,-1.2
Cc1ccc(-c2noc(C3CCCN(C(=O)c4cccc([N+](=O)[O-])c4)C3)n2)o1 (stereo not given),-7.9,nt,0.0,-0.5,5.3,3.7,7.2,5.8
Nc1cc(S(=O)(=O)N2CCOCC2)ccc1N1CCOCC1,-4.1,nt,1.3,-14.1,nt,2.2,nt,nt
O=S1(=O)CCN2C(=N1)Sc1c2ccc2c1CCCC2,-2.2,-3.5%,0.3,-0.9,-6.9,-9.5,1.1,-1.8
O=C(CCc1ccccc1O)NC1CCCc2ccccc21 (stereo not given),-5.1,4.2%,0.6,4.3,9.1,1.1,-2.6,-0.3
CCc1ccc(N(C(=O)c2ccco2)C(C(=O)NC2CCCC2)c2cccnc2)cc1 (stereo not given),0.3,nt,-0.2,4.6,14.8,4.9,-8.9,?
NC(N)=N/N=C/c1ccc(OCc2ccc(Cl)cc2Cl)cc1,nt,-10.3%,0.9,0.2,24.5,nt,123.1*,3.1
CCCCS(=O)(=O)NC1=NCN(CC)CN1,1.5,-2.8%,0.7,-2.7,0.2,0.8,-6.2,3.1
CCOC(=O)C(C)Oc1cc(Cl)c(C=O)cc1OC (stereo not given),-8.3,0.5%,0.3,-6.3,2.5,-1.5,-19.7,0.7
COC(=O)c1cc(S(=O)(=O)NCC2CCN(Cc3cccc(F)c3)CC2)cn1C,2.2,nt,-0.6,-1.7,17.8,-0.8,4.0,-1.6
CC(=O)Nc1sc2c(c1C(c1cccc(Cl)c1)N1CCN(CCO)CC1)CCCC2 (stereo not given),-0.5,-0.5%,0.5,2.6,-5.2,7.1,36.4,?
Cc1ccccc1C(=O)c1cccn1CC(=O)NCCCN1CCc2ccccc2C1,-5.8,?,1.3,2.6,0.7,3.0,-13.4,-0.7
Cc1ccc(NC(=O)C2CC(=O)N(Cc3ccco3)C2)cc1 (stereo not given),-3.9,-3.4%,1.4,0.6,6.2,1.9,-4.0,-3.0
Cn1c(NC(=O)C[n+]2cc(-c3ccc(Cl)c(Cl)c3)n3c2CCC3)cc(=O)n(C)c1=O,6.0,-1.6%,-0.2,-2.9,14.2,nt,-13.7,-1.6
CCOc1ccc(NC(=S)Nc2ccc(OC(F)(F)F)cc2)cc1,-3.9,-4.6%,0.3,-6.7,-2.8,nt,-4.0,3.4
CC1(C)OC(=O)C(=CNCC(O)c2ccccc2)C(=O)O1 (stereo not given),4.9,5.1%,0.9,-3.3,-7.6,nt,-10.9,0.2
CCC(=O)N1CCc2cc(Br)cc(S(=O)(=O)N(C)c3ccc(OC)cc3)c21,2.6,-8.7%,0.2,0.4,44.9,-8.1,-5.5,3.7
CC(=O)Oc1c(Br)cc(N(C(C)=O)S(=O)(=O)c2ccccc2)c2ccccc12,nt,22.5%,-1.2,1.1,1.1,-0.8,-2.1,0.9
O=C(Nc1c(C(=O)Nc2cccc(F)c2)oc2ccccc12)c1ccc2c(c1)OCO2,10.6,-12.2%,0.3,-8.5,5.2,nt,7.3,3.0
O=C(CN1CCN(S(=O)(=O)N2CCCCC2)CC1)Nc1ccc(Br)cc1,-3.7,nt,-0.2,3.1,5.5,-4.8,nt,nt
CCCCn1c(N)c(N(CCOC)C(=O)c2ccc(-c3ccc(Cl)cc3)o2)c(=O)[nH]c1=O,-5.5,5.8%,0.4,nt,-5.7,1.0,-2.0,?
COc1ccc(Oc2coc3c(CN(C)C)c(O)ccc3c2=O)cc1,2.9,3.8%,0.3,-2.1,1.2,nt,3.5,-2.7
COC(=O)COc1cc(OCC(=O)OC)c2c(-c3ccccc3)cc(=O)oc2c1,6.8,nt,0.1,3.2,-2.6,0.0,-3.4,-0.8
CC(C)(C)C(=O)Nc1ccccc1N1CCN(c2ccc(F)cc2)CC1,-9.3,17.6%,0.0,0.2,3.8,-8.3,-0.3,2.8
COc1c(C)cccc1C(=O)Nc1cc(Cl)ccc1N1CCOCC1,-6.2,-0.9%,0.4,-1.1,22.6,nt,5.3,-1.9
CC(=O)NC(=S)Nc1cccc2ccc(C)nc12,1.9,-35.5%,-2.2,0.5,-30.6,nt,4.7,5.8
Cn1nnc(NC(=O)COc2ccc(C3CCCCC3)cc2)n1,-1.7,0.6%,0.1,1.9,-11.5,nt,-0.3,-1.9
Cc1csc(NC(=O)Cc2c[nH]c3ccccc23)n1,-1.7,6.2%,-1.9,4.6,-7.7,nt,-11.7,4.8
O=C(Cn1c(=O)n(Cc2ccccc2)c(=O)c2ccccc21)NCc1ccco1,2.5,-1.3%,-1.0,-1.3,-0.2,nt,-10.5,1.6
CCNC(=O)NC(=O)C(C)OC(=O)c1cc(S(=O)(=O)N2CCCCCC2)ccc1OC (stereo not given),1.9,-0.1%,0.3,5.1,0.1,nt,-0.2,-4.7
Cc1cc(=O)oc2cc(OCC(=O)N3c4ccccc4NC(=O)C3(C)C)ccc12,12.1,-16.8%,-0.8,3.3,nt,-6.6,nt,nt
COc1ccc(CNC(=O)c2ccc(C(C)(C)C)cc2)cc1,2.7,6.6%,0.3,-2.3,0.3,-0.6,2.2,0.0
Cc1c(NC(=O)C(C)Oc2ccc(Br)cc2Cl)c(=O)n(-c2ccccc2)n1C (stereo not given),-6.2,nt,0.7,1.0,4.6,0.9,-1.2,nt
CC1CCc2c(sc3nc(C4CC4)nc(N4CCN(C(=O)c5ccco5)CC4)c23)C1 (stereo not given),98.1*,-1.9%,-0.9,-9.1,34.4,nt,-6.8,-1.8
CCn1nc(C)c(CNC(=O)Nc2ccccc2C(=O)OC)c1C,3.3,-6.7%,-0.9,0.4,-7.5,-0.7,5.7,0.9
